Compound activity from PubChem BioAssay.
Sfp inh = blocks B. subtilis Sfp PPTase activity; Q9F4F7; Biochemical Sfp PPTase activity, qHTS; Potency, µM, inactives show max response, negative = inhibition, hits mostly inhibitors; hit rate 3.5% among 310,000; AID 1490; active = well fitted inhibition curve with a large enough effect; inconclusive = small, poorly fitted or top-dose-only effect, or another doubt; inactive = no such curve, though single readings can be large or run the other way;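 also: the enzyme is Sfp with the accession as filed and its product quenches rhodamine fluorescence; potency is read from the fitted curve at half-maximal effect; 0% = enzyme reaction without inhibitor and -100% = no enzyme wells; top concentration of the series not given in the record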
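After 15 min at room temperature with compound, 15 nM Sfp received 5 uM rhodamine-CoA plus 12.5 uM BHQ-2-ybbR (50 mM Hepes pH 7.6, 10 mM MgCl2). Rate came from the fluorescence difference over 30 min, ex 525/em 598 nm.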
TRPML1 agonist = activates the human TRPML1 channel; activation, % (no concentration beside the values); hit rate 0.12% among 410,000; Q9GZU1; TRPML1-expressing cells, Ca2+ dye fluorescence, FDSS; host cell line not named in the record; reference of the full effect not given here; in the data active = activation above about 50%; inconclusive = about 30% to 50%; inactive = below about 30%; also: 0% is about no effect; the text of the record puts the active cut at 80%
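In this qHTS format, compounds were pin-transferred onto Ca8-dye-loaded TRPML1-DL cells induced with Tet overnight, and intracellular Ca2+ fluorescence was recorded kinetically for 110 s after a 10 s baseline. A subsequent 4uM final 54-4 (EC80) addition followed by a second 110 s read served as the antagonist phase.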
Menin-MLL FL inh = inhibitors of human menin-MLL interaction, wild-type MLL peptide; Fluorescence polarization, fluorescein-MLL peptide displacement from menin; FP activity change, % at 61.4 µM; AID 1766; 290,000 tested, under 10 active; inconclusive = falling polarisation curve, or a change in total fluorescence; inactive = total fluorescence flat and polarisation flat or rising; no compound was filed as active; the % refers to the polarisation; negative = inhibition;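 also: % of control where 0% means no effect; inhibitors lower the polarisation; unlabelled MLL peptide was the positive control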
TRPML1 blocker = blocks the human TRPML1 channel | AID 624415 | activity change, negative = inhibition, % (no concentration beside the values) | hit rate 0.02% among 390,000 | TRPML1-inducible cells, Ca2+ dye fluorescence, FDSS; hits give low values; inhibition of EC80 agonist-evoked calcium signal; in the data active means activity change below about -50%; inconclusive means about -30% to -50%; inactive means above about -30%;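 also: stimulus is agonist 54-4 at its EC80 concentration; % is scaled to controls: 0 for no effect and ±100 for the full control effect; compound concentration not given in the record; the text of the record puts the active cut at -80%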
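Tet-induced TRPML1-DL cells loaded with Ca8 no-wash calcium dye were read kinetically on FDSS. Compound addition was followed by EC80 agonist 54-4 (4 uM final); inhibition was read over 110 s.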
TRPV1 potentiator = potentiators of human vanilloid receptor 1 (TRPV1) | TRPV1-expressing cells, Fluo-8 calcium influx, capsaicin EC20 potentiation; host cell line not named in the record; control for the full effect not named in the record | hit rate 0.02% among 320,000 | Q8NER1 | potentiation, % at 8.33 µM | AID 540277; active means potentiation above 80%; inconclusive means 30% to 80%; inactive means below 30%; also: 0% is about no effect
Target sequence (Q8NER1 whole entry, looked up): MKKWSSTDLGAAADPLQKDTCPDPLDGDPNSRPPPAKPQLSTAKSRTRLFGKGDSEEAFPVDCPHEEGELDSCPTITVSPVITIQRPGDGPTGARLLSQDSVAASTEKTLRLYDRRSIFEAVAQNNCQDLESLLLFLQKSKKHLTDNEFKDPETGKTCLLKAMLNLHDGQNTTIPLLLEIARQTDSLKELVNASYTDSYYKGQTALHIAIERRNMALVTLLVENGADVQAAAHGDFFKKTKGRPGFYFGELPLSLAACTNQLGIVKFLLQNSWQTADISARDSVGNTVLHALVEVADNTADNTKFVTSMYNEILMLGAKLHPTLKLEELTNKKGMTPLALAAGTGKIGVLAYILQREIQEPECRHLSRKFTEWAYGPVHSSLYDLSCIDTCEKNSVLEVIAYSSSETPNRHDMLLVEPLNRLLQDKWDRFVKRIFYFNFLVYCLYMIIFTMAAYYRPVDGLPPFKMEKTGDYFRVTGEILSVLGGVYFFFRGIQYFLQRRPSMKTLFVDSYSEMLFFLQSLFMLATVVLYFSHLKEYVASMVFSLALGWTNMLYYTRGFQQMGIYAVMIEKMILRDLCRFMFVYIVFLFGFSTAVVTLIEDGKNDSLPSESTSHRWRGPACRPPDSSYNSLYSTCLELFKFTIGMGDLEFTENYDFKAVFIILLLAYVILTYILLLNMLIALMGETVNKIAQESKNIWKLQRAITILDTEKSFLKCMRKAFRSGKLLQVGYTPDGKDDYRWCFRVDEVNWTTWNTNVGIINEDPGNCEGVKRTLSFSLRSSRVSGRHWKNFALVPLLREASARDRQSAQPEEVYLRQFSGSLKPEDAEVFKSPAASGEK
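Fluo-8 calcium influx in TRPV1-expressing cells, kinetic read (ex 480/em 520 nm). Compound added and read 3 min for agonist activity, followed by capsaicin at EC20 final and 2 min further read for enhancement.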
PINK1 modulator = changes PINK1 expression; PINK1 immunofluorescence, high-content cytometry, 24 h; Potency, µM (titrated, usually from 76.6 µM), inactives show top-dose activation (PINK1 increase), hits mostly activators; hit rate 0.2% among 410,000; active = well fitted activation curve with a large enough effect; inconclusive = small, poorly fitted or top-dose-only effect; inactive = flat fitted curve, though single readings scatter; cell line not stated here;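 also: potency is read from the fitted curve at half-maximal effect; % of control where 0% means no effect; nearly all actives have a fitted effect of over 65% in size; a mitochondrial uncoupler was the plate control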
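Stable cell line, 250 cells/well, 12 h attachment; compounds pinned at 5 concentrations, 24 h; CCCP control. Fixed with nuclear dye, primary antibodies 12 h at 10 degrees C, secondary plus cell stain; laser-scanning cytometer read.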
ClpP mod = qHTS Assay for Activators of ClpP; ATP-dependent Clp protease proteolytic subunit (Bacillus subtilis (strain 168)), P80244; hit rate 1.9% among 340,000; Potency, µM (top dose mostly 57.5 µM), inactives show at the highest dose activity change, negative = active; purified B. subtilis ClpP, FRET peptide cleavage, 20 min; active = well fitted falling curve with a large enough effect; inconclusive = small, poorly fitted or top-dose-only effect; inactive = no such curve, though single readings can be large or run the other way; also: potency is read from the fitted curve at half-maximal effect; the source files actives as falling curves though it sought activators and does not explain the sign; nearly all actives have a fitted effect of over 65% in size; many hits overshoot -100%
Target sequence (P80244 whole entry, looked up): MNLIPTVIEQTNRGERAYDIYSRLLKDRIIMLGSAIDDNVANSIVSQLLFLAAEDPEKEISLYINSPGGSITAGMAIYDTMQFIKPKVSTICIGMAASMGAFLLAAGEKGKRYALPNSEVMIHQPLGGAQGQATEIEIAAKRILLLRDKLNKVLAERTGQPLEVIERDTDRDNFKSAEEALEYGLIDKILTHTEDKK
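FRET quenching reversal measured ClpP activation: 10 microg/mL B. subtilis ClpP at pH 8 with the FRET-FV decapeptide, read at 430 nm after 320 nm excitation. The 20-min minus 0-min signal was scaled between DMSO/no-enzyme wells and ADEP (5.8 microM final).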
The depositor's hits bear a star; u = inconclusive; x = not tested or not shown; [ ] = another dose, or the depositor's remark.

SMILES	Sfp inh	TRPML1 agonist	Menin-MLL FL inh	TRPML1 blocker	TRPV1 potentiator	PINK1 modulator	ClpP mod
O=C(NC1CCS(=O)(=O)C1)c1cccc(S(=O)(=O)N2CCOCC2)c1 (stereo not drawn)	26.3%	0.3	-0.4	6.5	u	8.8%[38.3 µM]	-0.5%
Nc1ccc(Br)cc1C(NCC(=O)O)c1ccccc1 (stereo not drawn)	-3.5%	0.1	-6.5	16.7	7.5	0.7%	x
O=C1CC(N2CCCc3ccccc32)C(=O)N1c1ccccc1Cl (stereo not drawn)	-15.0%	-0.7	5.3	7.8	0.7	0.3%	1.6%
COc1ccc(C(=O)C(O)C(c2ccc(C)cc2)N2CCOCC2)cc1OC (stereo not drawn)	17.8%	-1.6	-1.9	3.5	u	3.8%	-0.2%
O=C(NCCc1ccccc1)C1(S(=O)(=O)c2ccc(Cl)cc2)CC1	13.5%	1.7	1.2	-5.1	-9.9	-0.3%	0.5%
CC(Sc1nc(N)c2c3c(sc2n1)CSC(C)(C)C3)C(=O)Nc1ccccc1 (stereo not drawn)	-0.6%	2.1	3.1	20.2	4.5	u	-5.7%
O=c1cc(N2CCCCC2)c(-c2ccccc2)n[nH]1	3.5%	-0.6	-1.9	-2.0	-5.4	-0.3%	x
COc1cccc(/C(C)=N/NS(=O)(=O)c2ccc(Cl)cc2)c1	11.4%	0.9	-0.3	-7.4	14.1	-1.3%	x
CN1CCN(C(=O)CSc2ccc(Cl)cc2)CC1	16.3%	-0.6	-7.6	1.0	-0.4	2.5%	x
CC(C)c1ccc(S(=O)(=O)c2cnc(=S)[nH]c2N)cc1	7.3%	0.0	-1.1	-10.3	9.5	2.0%	x
COc1cccc(C(=O)Nc2ccc(NC(=O)C3CC=CCC3C(=O)O)cc2)c1 (stereo not drawn)	10.6%	-0.6	x	2.2	3.3	0.3%	1.1%
Cc1ccc(/C(N)=N/OC(=O)COc2ccccc2Cl)cc1	-3.3%	0.4	1.8	0.4	17.7	2.1%	-30.0%
CN(C(=O)CSC1=Nc2ccccc2C2=NC(c3ccccc3)C(=O)N12)C1CCCCC1 (stereo not drawn)	-14.0%	0.4	12.3	51.4	-26.1	4.0%	25.1µM*
O=S(=O)(NCCNCC=Cc1ccc(Br)cc1)c1cccc2cnccc12	x	2.5	x	x	x	-0.4%	-2.4%
CC(=O)Nc1ccc(/C(C)=N/NS(=O)(=O)c2ccccc2)cc1	6.0%	-0.3	3.2	11.1	-4.9	4.5%	0.8%
Cc1nn(-c2ccccc2)c(N)c1N=Nc1cccc(S(=O)(=O)N2CCOCC2)c1	4.9%	-0.7	-1.0	6.9	-15.5	5.0%	x
CN1CCCN(C(=O)c2ccc(Br)s2)CC1	2.2%	-0.1	x	4.5	-1.8	-1.3%	2.3%
Cc1onc(-c2ccccc2)c1C(=O)NC(=S)NNC(=O)c1ccncc1	-1.4%	-0.1	x	0.2	u	u	3.0%
CN(C(=O)c1ccccc1OC1CCN(S(C)(=O)=O)CC1)C1CCOC1 (stereo not drawn)	-7.5%	2.5	0.1	16.7	5.6	1.4%	-1.2%
Cc1cccc(-n2cc(-c3ccccc3)nc2SCC(=O)Nc2ccccc2Cl)c1	x	-0.1	x	-6.6	x	2.5%	-2.3%
CC(=O)Nc1ccc(S(=O)(=O)N(C)CC(=O)NNc2c(F)c(F)cc(F)c2F)cc1	x	-0.7	x	-8.5	x	2.4%	0.5%
Cc1cnc(C(=O)Nc2cccc(-c3nnc4n3CCCCC4)c2)cn1	13.9%	-0.4	1.5	8.7	-11.5	-0.8%	0.4%
O=C(COc1ccc(F)cc1Cl)Nc1cccc(S(=O)(=O)N2CCCCCC2)c1	x	3.4	x	-23.3	7.3	10.8%	-5.5%
O=C(CCN1C(=O)c2ccccc2S1(=O)=O)Nc1ccccc1O	-1.4%	0.2	3.3	7.2	0.6	-0.7%	0.7%
COc1ccc(C(=O)Nc2ccc(C3(C#N)CCCC3)cc2)cc1	28.7%	-0.1	4.9	-2.5	-28.6	2.8%	x
O=C(COC(=O)c1ccccc1C(=O)c1ccccc1)NCCc1ccc(Cl)cc1Cl	5.2%	3.4	4.0	3.5	5.5	u	-4.8%
C=CCOc1cccc(CNCCCN2CCOCC2)c1	-11.8%	-0.2	-0.9	-11.0	-5.1	-0.2%	14.1µM*
COc1ccccc1C(=O)c1c(N)c(-c2nc(-c3ccccc3)cs2)c2ccccn12	x	1.5	x	u	x	7.9%	1.1%
CC1CCCCN1c1nnc(NC(=O)Cn2c(=O)oc3ccccc32)s1 (stereo not drawn)	0.4%	-0.3	-0.4	8.3	15.0	1.1%	-2.1%
N#Cc1ccc(-c2nc3ccccc3nc2-c2ccccc2)cc1C#N	-41.1%	1.9	11.6	30.5	18.8	2.6%	-9.5%
CCCc1c(C(=O)N/N=C/C2CC=CCC2)nnn1-c1nonc1N (stereo not drawn)	x	0.3	x	-3.0	x	-0.9%	-1.6%
Cc1cc(Cl)c(S(=O)(=O)Nc2ccc3c(c2)OCCO3)cc1OCC(=O)NC1CCCCC1	18.3%	1.4	-2.0	2.7	12.2	1.8%	-2.4%
COc1ccc(OC)c(/C=C/C(=O)N2CCN(S(=O)(=O)c3cc(C)ccc3C)CC2)c1	x	1.6	x	9.5	1.5	0.1%	3.8%
CCOc1ccccc1-c1nc(-c2cc3ccccc3nc2OC)no1	-3.9%	1.4	5.6	12.4	-1.7	19.9%	u
O=C(CN1CSCC1=O)N1CCN(S(=O)(=O)c2cc(C(F)(F)F)ccc2Cl)CC1	x	-0.2	x	-4.4	3.1	-1.0%	-0.2%
Cn1c(NC(=O)c2ccccc2)c(-c2ccccn2)c(=O)c2ccccc21	-2.8%	3.4	0.8	27.4	-3.2	6.1%[38.3 µM]	-0.6%
C=CCn1c(Sc2nncn2C)nc2c1c(=O)[nH]c(=O)n2C	8.1%	0.3	3.0	13.8	-4.8	0.0%	-1.2%
COc1ccccc1N1CCN(CCCNc2c(C)c(=O)n(C)c(=O)n2C)CC1	-5.0%	-0.7	-1.5	10.8	x	0.5%	-0.1%
COc1ccc(NC(=S)NNC(=O)C2CC2c2ccc(C)cc2)cc1 (stereo not drawn)	3.9%	1.2	3.8	-5.8	7.2	5.9%	1.7%
Fc1cccc(-c2n[nH]c(=S)n2-c2ccccc2)c1	13.6%	-0.6	0.2	-2.2	-12.8	2.1%	-17.3%
Cc1ccc(S(=O)(=O)N2CCCCC2)cc1NC(=O)COC(=O)Cc1cccc(C(F)(F)F)c1	6.5%	-0.1	x	2.7	28.2	0.9%	-0.3%
CS(=O)(=O)c1ccc2sc(NC(=O)c3cc4ccccc4o3)nc2c1	-21.7%	-0.5	2.9	-1.5	0.7	2.9%	x
Cc1ccccc1C1CC(c2ccccc2)Nc2ncnn21 (stereo not drawn)	-4.9%	1.9	-0.8	11.6	3.8	7.3%	0.3%
C=CCOc1c(Cl)cc(Cl)cc1S(=O)(=O)NCCO	x	-0.4	x	-12.1	x	0.5%	-3.6%
Cc1c(Cl)ccc2c(C(=O)Nc3cc(C(C)(C)C)on3)cc(-c3ccccn3)nc12	22.1%	-0.2	2.2	14.9	10.9	u	-17.7%

Quoted at random: 3 entries already listed
SMILES	Sfp inh	TRPML1 agonist	Menin-MLL FL inh	TRPML1 blocker	TRPV1 potentiator	PINK1 modulator	ClpP mod
CCOc1ccccc1-c1nc(-c2cc3ccccc3nc2OC)no1	-3.9%	1.4	5.6	12.4	-1.7	19.9%	u
COc1ccc(NC(=S)NNC(=O)C2CC2c2ccc(C)cc2)cc1 (stereo not drawn)	3.9%	1.2	3.8	-5.8	7.2	5.9%	1.7%
Cc1cc(Cl)c(S(=O)(=O)Nc2ccc3c(c2)OCCO3)cc1OCC(=O)NC1CCCCC1	18.3%	1.4	-2.0	2.7	12.2	1.8%	-2.4%

Continued.
SMILES	Sfp inh	TRPML1 agonist	Menin-MLL FL inh	TRPML1 blocker	TRPV1 potentiator	PINK1 modulator	ClpP mod
OC1CCCCC1	x	-0.3	x	-2.6	-3.6	-0.1%	0.3%
CCS(=O)(=O)N1Cc2cc(C(=O)N(C)C)nc(-c3cccc(-c4ccc(F)cc4)c3)c2[C@H]1CCO	x	0.1	x	x	x	0.0%	1.1%
Clc1ccc(-c2nc3ccc(Cl)cn3c2Cc2cccc(Cl)c2)cc1	x	1.8	x	58.7	x	8.0%	4.4%
COc1ccc(C2C(C(C)=O)=C(O)C(=O)N2c2ccc(C)cc2)cc1 (stereo not drawn)	-13.7%	0.6	-4.0	5.4	12.6	-1.6%	-0.4%
Cc1ccc(S(=O)(=O)N2CCN(c3ccnc(-c4cccs4)n3)CC2)cc1	x	0.5	x	x	x	-0.4%	u
COc1ccc(NC(=O)CN2CC(c3ccccc3)CC2=O)cc1OC (stereo not drawn)	23.3%	-0.3	3.0	8.2	-12.3	0.8%	1.1%
CCn1cc(C(=O)Nc2cccc(C(=O)OC)c2)c(=O)c2ccc(C)nc21	-5.2%	0.9	2.1	0.2	6.7	-0.2%[38.3 µM]	0.4%
COc1cccc(C(=O)COC(=O)c2n[nH]c(=O)c3ccccc23)c1	12.8%	1.0	0.1	-8.5	2.9	-1.6%	x
COc1ccc(CCN(C)C(=O)COc2ccc(C(=O)c3ccccc3)cc2)cc1OC	x	0.7	x	-0.6	-7.8	-3.9%	1.0%
Cc1ccc(Cl)c2sc(NC(=O)c3ccc(S(=O)(=O)N4CCCC4)cc3)nc12	x	1.3	x	-22.8	x	-3.5%	-9.1%
O=C(NCCN1CCOCC1)c1cc(S(=O)(=O)NCCCN2CCCC2=O)ccc1Cl	2.6%	-0.5	-0.4	-3.6	-1.5	-0.3%	-1.4%
CCCc1cc(C(=O)Nc2sc(C)c(C)c2C(=O)OCC)no1	15.8µM*	-0.7	1.5	-2.3	-6.6	1.8%	10.4%
O=C(NC1CCCCCC1)C1CC(=O)N(c2ccc(Cl)cc2)C1 (stereo not drawn)	15.3%	0.7	2.5	-2.5	-3.6	-1.6%	x
COc1ccc(C(C(=O)NCC2CCCO2)N(Cc2ccc(F)cc2)C(=O)CNC(=O)c2ccco2)cc1OC (stereo not drawn)	15.0%	0.5	-1.8	39.1	28.0	-0.3%	x
